Vif A3G = inhibitors of Vif binding to APOBEC3G peptide, primary screen, biochemical, TR-FRET, GST-Vif 1-94, biotin-A3G peptide, dose response retest (AID 1117319); TR-FRET GST-Vif / biotin-A3G peptide binding; higher % means a stronger effect; test concentration not given here; strong numbers were not always called active; one-dose inhibition, %; IC50 in µM for titrated hits; 0.57% of 260,000 active;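 active = above the screen mean plus three standard deviations and confirmed in dose response; inconclusive = results disagree or hit not tested in dose response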;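 note: Vif residues 1-94 fused to GST binding biotinylated APOBEC3G peptide 110-148; 0% = full assay without inhibitor and 100% = GST in place of GST-Vif; retest series ran down from 100 µM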
Calb FLC = C. albicans growth modulation with fluconazole; C. albicans CaCi-2 (fluconazole-resistant clinical isolate) + fluconazole, Alamar Blue growth, 48 h; AID 1979; 0.57% of 300,000 active; growth inhibition, % (no concentration beside the values);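 active = most replicates above 75%; inconclusive = exactly half above 75%; inactive = most below 75%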;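 note: all wells also contain fluconazole at 8 µg/ml as a sub-toxic cotreatment; 0% = median of DMSO wells and 100% = median of geldanamycin control wells; wells of about 8 µL received 7.5 nL stock; the first replicate is given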
RanGTP-Imp inh = disruptors of Ran-importin-beta complex formation – biochemical, FRET, CFP-Ran, YFP-importin-beta, homogeneous, primary screen. cell-free CFP-Ran/YFP-importin-beta FRET ratio. inhibition, % (concentration not given with the values). 1.1% of 300,000 active. AID 2216;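 active = most replicates above 15%; inconclusive = exactly half above 15%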;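 note: 0% = DMSO wells and 100% = Ran loaded with GDP instead of GTP; wells of about 40 µL received 100 nL stock; the first replicate is given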
Beta apoptosis = blocks beta cell apoptosis. INS-1E cytokine-induced death, ATP luminescence, 48 h; percent of positive-control rescue, neutral wells zero. protection from apoptosis, % (concentration not given with the values). 0.8% of 300,000 active. AID 435005;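 active = all replicates at 75% or more, or half of them and the mean; inconclusive = half reach 75% but not the mean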;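 note: 0% = cytokine-treated negative control wells and 100% = positive control rescue; higher means more ATP so stronger rescue from cytokine killing; wells of about 40 µL received 100 nL stock; the first replicate is given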
T cruzi inh = T. cruzi replication inhibition; 1.4% of 300,000 active; T. cruzi beta-gal in NIH3T3, luminescence, 90 h; inhibition, % (concentration not given with the values);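 active = mean inhibition across valid replicates above about 55%, limit read from the data; inconclusive = mean below that limit but half or more replicates reach it; inactive = mean below it, under half of replicates reach it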;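 note: signal also drops with host cell toxicity which is not excluded here; 0% = plate median of DMSO wells and 100% = zero luminescence signal; higher percent means less beta-gal luminescence so fewer parasites; stock transfer was 50 nL into about 50 µL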
Bfl-1 A1 inh = inhibitors of the anti-apoptotic protein A1, read as caspase activation; caspase activation, % (no concentration beside the values); AID 2462; MEF A1-2A-BIM cells, Caspase-Glo 3/7 luminescence, 3 h; percent of clofoctol response, vehicle zero; 0.066% of 330,000 active;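 active = over half of replicate activation scores above 10%, or exactly half above 10 with the replicate mean above 10; inconclusive = replicate mean below 10 yet half the replicates above 10; inactive = over half of replicates below 10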;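 note: wells of about 30 µL received 50 nL stock; many hits fall short of the cut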
AF4-AF9 inh = blocks AF4 peptide binding to human AF9; P42568; AlphaScreen, biotin-AF4 peptide binding to FLAG-AF9; inhibition, % at 10 µM; 0.47% of 350,000 active; AID 651704;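 active = every replicate reaching a set inhibition limit, whatever the replicate mean, cut at about 25% in these data; inconclusive = mean inhibition reaches that limit but some replicates miss it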;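 note: 0% = plate neutral control median and 100% = total signal loss; the record names both 10 and 1 µM as test concentration; the first replicate is given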
Target sequence (P42568 whole entry, looked up): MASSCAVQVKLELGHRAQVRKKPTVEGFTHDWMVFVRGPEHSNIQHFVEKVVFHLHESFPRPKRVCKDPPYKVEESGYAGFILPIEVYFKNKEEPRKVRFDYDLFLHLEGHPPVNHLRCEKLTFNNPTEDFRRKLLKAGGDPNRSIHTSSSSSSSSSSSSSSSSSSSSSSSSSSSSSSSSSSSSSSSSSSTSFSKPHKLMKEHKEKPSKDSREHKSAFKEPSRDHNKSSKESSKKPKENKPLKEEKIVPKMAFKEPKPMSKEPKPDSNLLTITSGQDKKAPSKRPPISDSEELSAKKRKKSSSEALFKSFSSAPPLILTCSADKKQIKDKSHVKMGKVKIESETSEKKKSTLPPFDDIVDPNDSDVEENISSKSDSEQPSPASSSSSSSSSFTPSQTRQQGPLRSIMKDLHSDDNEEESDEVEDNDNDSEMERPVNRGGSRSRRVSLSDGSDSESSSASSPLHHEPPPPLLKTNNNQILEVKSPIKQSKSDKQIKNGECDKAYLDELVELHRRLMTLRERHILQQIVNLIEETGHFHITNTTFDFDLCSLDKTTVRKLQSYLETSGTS
LANA-H2B inh = blocks KSHV LANA binding to histone H2A/H2B; cell-free LANA-H2A/H2B peptide, fluorescence polarization; Q9QR71; AID 2629; 0.6% of 320,000 active; inhibition, % (no concentration beside the values); in the data active = inhibition mostly above about 10%, no sharp cut-off; inactive = mostly below about 6.7%;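 note: stock transfer was 7.5 nL into about 10 µL; 0% = median of vehicle wells and 100% = median of positive control wells; one replicate is shown; the record names a cut of 25% in any replicate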
Starred values were filed as active, the others as inactive; u = inconclusive; x = no result given; & = joins results of further samples.

SMILES | Vif A3G | Calb FLC | RanGTP-Imp inh | Beta apoptosis | T cruzi inh | Bfl-1 A1 inh | AF4-AF9 inh | LANA-H2B inh
CCN(CC)CCN1C(=O)C(=O)/C(=C(/O)c2c(C)[nH]c(C(=O)OC)c2C)C1c1cccc(OC)c1 (stereo not drawn) | 20% | u | 1.1 | -4 | -16 | -0.1 | x | 4.4
CCCCNC(=O)Nc1nc2ccc(CC)cc2s1 | -1% | 7 | -0.6 | 9 | 24 | -0.2 | -4.6 | -0.3
COc1ccc(NC(=O)c2ccc(=O)[nH]c2)cc1S(=O)(=O)N1CCCCC1 | -7% | 6 | 1.9 | -3 | -21 | -1.2 | -6.3 | 5.0
CCOc1ccc(C(=O)CC(Sc2ccc(C)cc2)C(=O)O)cc1 (stereo not drawn) | 3% | -14 | u | -27 | -17 | 0.5 | -4.5 | 2.9
COc1ccc(C(=O)N2CCCC(N3CCN(c4ccccc4F)CC3)C2)c(OC)n1 (stereo not drawn) | x | 1 | 4.4 | x | 2 | 0.1 | 1.6 | -2.4
Cc1c([C@@H]2C[C@H]3CN(Cc4cccc(Cl)c4)C(=O)[C@]34CCCN24)cnn1C | x | u | 0.6 | x | 15 | -0.8 | 1.0 | 4.9
C/C(Cn1nc([N+](=O)[O-])cc1C)=N\NC(=O)c1ccc(C(C)(C)C)cc1 | 27% | -16 | 3.5 | 2 | -11 | -0.1 | x | 4.7
O=C1CC(NCCC2=CCCCC2)C(=O)N1c1cccc(Cl)c1Cl (stereo not drawn) | 11% | 11 | 3.6 | x | -11 | 1.3 | x | 2.1
Cc1ccc(S(=O)(=O)N2CCC(C(=O)OCC(=O)Nc3cc(S(C)(=O)=O)ccc3Cl)CC2)cc1C | 0% | -2 | -2.6 | 0 | -1 | 0.0 | -3.1 | 2.7
CCOc1cc(/C=N/NC(=O)C(=O)NC2CC2)cc(Br)c1O | x | -11 | -4.3 | -3 | -9 | -0.2 | 1.7 | -3.5
COc1cccc(CSc2nc3ccncc3[nH]2)c1 | 5% | -9 | 1.3 | 23 | -15 | -4.1 | -0.9 | -4.7
CCOc1ccc(CN2CCNC(=O)C2CC(=O)NCc2csc(C)n2)cc1 (stereo not drawn) | -2% | 1 | 4.9 | -3 | -2 | -0.5 | -8.0 | -0.1
COCc1cc(C)nc(NCCO)c1C#N | 64% | -9 | -0.2 | -9 | 1 | 0.8 | x | 2.0
CCOc1ccc(/C=N/Nc2ccccn2)cc1OC | x | 15 | -1.5 | 3 | 6 | -3.7 | 0.9 | 2.9
O=C(NCCC(=O)N1CCCC(C(F)(F)F)C1)c1ccc(Br)cc1 (stereo not drawn) | -5% | 0 | 1.8 | -3 | -6 | -0.5 | -2.1 | -0.9
CC(=O)N1CCN(c2ccc(NC(=O)C(c3ccccc3)c3ccccc3)cc2)CC1 | 9% | 10 | -4.7 | 20 | 2 | 0.5 | 7.8 | -6.3
COc1cc(/C=N/Nc2nn3cnnc3c3ccccc23)ccc1O | 3% | 3 | -1.5 | 52 | -19 | -5.2 | x | 1.2
Cc1cccc2cc(CN(Cc3nnnn3C3CCCCC3)C3CCCC3)c3nnnn3c12 | 15% | -4 | 2.0 | 21 | 51 | 0.4 | x | -4.5
O=C1OC2(CCCCC2)OC(=O)C1=CNc1nccs1 | 21% | -3 | -1.9 | -3 | -9 | -0.1 | x | -9.1
Cc1nc(NC(=O)/C=C/c2ccccc2)sc1C(=O)Nc1ccccc1Cl | -12% | 22 | 2.1 | 3 | -12 | 0.0 | x | 4.6
CN(C)NC(=S)Nc1ccc(Cl)cc1 | 7% | -12 | 1.5 | -7 | -7 | 0.2 | -11 | 1.9
CCOC(=O)N1CCC(NCCNC(=O)c2ccccc2)CC1 | 0% | -4 | -4.0 | -2&-3 | 4 | -0.3&-0.9 | 0.6 | -2.4&-1.6
COc1cc(OC)cc(C(=O)NCCS(=O)(=O)N2CCN(Cc3ccccc3)CC2)c1 | 1% | 2 | 2.0 | 6 | 1 | 0.2 | -0.8 | -0.2
CCOc1ccc(CNC(=O)CCCn2nc(C)c3c(C)n(-c4ccc(C)cc4)nc3c2=O)cc1 | x | -10 | 1.0 | -1 | 5 | -0.3 | -3.5 | -3.0
COc1ccc(N(C)S(=O)(=O)c2cccc(C(=O)N3CCN(S(=O)(=O)c4ccc(C)cc4)CC3)c2)cc1 | -3% | -4 | -1.6 | 10 | 32 | -0.2 | -0.8 | -2.3
Cc1ccc(S(=O)(=O)c2cnc3cc(C)nn3c2N)cc1 | -5% | u | -1.0 | 2 | -1 | -0.7 | -0.2 | x
O=C(NCc1ccc(Cl)cc1)C1CCN(S(=O)(=O)c2ccc(N3CCCC3=O)cc2)CC1 | 10% | -1 | 2.3 | 18 | -1 | -0.1 | 0.6 | 4.7
NC(=O)c1ccc2c(c1)OCCO2 | -2% | 36 | -4.3 | -7 | -14 | 0.5 | x | 0.0
CCCCCC(=O)Nc1cccc(C2=NOC3(C2)C[C@H](C(N)=O)N(C(=O)c2ccccc2)C3)c1 (stereo partly drawn) | u | 3 | 0.4 | -5 | 43 | 0.0 | x | -2.7
CCCC(C(=O)NCc1ccco1)N(C(=O)CNS(=O)(=O)c1ccccc1)c1ccccc1OC (stereo not drawn) | -4% | 7 | 0.3 | x | 18 | -0.2 | x | -1.0
COc1ccc(OC(=O)c2cccc([N+](=O)[O-])c2)c(C(=O)/C=C/c2cccs2)c1 | 5% | -16 | 0.6 | -9 | -20 | 0.4 | x | 0.8
Cc1cc(NC(=O)CN2C(=O)NC(CC(C)C)C2=O)ccc1Br (stereo not drawn) | -5% | x | x | -10 | x | -0.8 | 0.2 | -3.7
Cc1nnc(SCC(=O)c2ccc(Br)cc2)s1 | u | -5 | 3.5 | -1 | -19 | 1.8 | 0.6 | 1.1
Cc1cccc(-c2nc(CS(=O)CC(=O)N3CC(C)CC(C)C3)c(C)o2)c1 (stereo not drawn) | -4% | 3 | 8.4 | -5 | 11 | 0.4 | -21 | -3.9
O=C(O)C1=C[C@H](c2cccs2)C[C@H](OCc2ccc(CO)cc2)O1 | 4% | -4 | u | -5 | 8 | -0.3 | 0.3 | 1.0
COc1ccc(/C=C2\C(=O)OCc3cc(OC)c(OC)cc32)cc1OC | 5% | -17 | 2.8 | -1 | -21 | 0.4 | x | -0.7
O=[N+]([O-])/C=C/c1cn(Cc2ccccc2)c2ccccc12 | 10% | -13 | 2.9 | 1 | 37 | -0.1 | x | -1.6
CC(C)(C)OC(=O)NCCCC[C@@H](C(=O)N1CCN(C(=O)OC(C)(C)C)CC1)n1cc(CCC(=O)O)nn1 | 17% | 9 | 2.6 | -7 | -11 | -0.9 | -3.8 | 1.2
CSc1nnc(-c2cnccn2)n1C | -2% | 0 | 12 | -7 | -5 | 1.7 | -66 | 3.4
CCOC(=O)c1ccc(N2CCOCC2)c(NC(=O)c2nccnc2C(=O)O)c1 | 27% | 2 | 7.3 | -8 | -3 | -0.8 | 0.6 | -1.5
Cc1ccc(C(=O)N2CCCC(C(F)(F)F)C2)cc1S(=O)(=O)N1CCOCC1 (stereo not drawn) | -3% | x | x | -3 | x | 0.0 | -2.0 | -2.4
c1csc(-c2nc3ccccc3[nH]2)c1 | 27% | x | x | 4 | x | 0.4 | x | -5.0
O=C(CN1C(=O)C(=O)N(Cc2ccco2)C1=O)Nc1ccccc1 | -3% | x | x | -3 | x | 0.2 | 0.5 | -1.4
O=C(CN1CCN(Cc2ccc3c(c2)OCO3)CC1)Nc1ccc2c(c1)OCCO2 | -5% | 0 | -4.3 | x | 11 | x | x | x
Cc1cc(C(=O)CSc2nnc3c(Cl)cc(Cl)cn23)c(C)n1C | 31% | -7 | -1.9 | -9 | -2 | 0.6 | x | 2.8

Of the compounds above, these have a nitro group on carbon:
SMILES | Vif A3G | Calb FLC | RanGTP-Imp inh | Beta apoptosis | T cruzi inh | Bfl-1 A1 inh | AF4-AF9 inh | LANA-H2B inh
C/C(Cn1nc([N+](=O)[O-])cc1C)=N\NC(=O)c1ccc(C(C)(C)C)cc1 | 27% | -16 | 3.5 | 2 | -11 | -0.1 | x | 4.7
COc1ccc(OC(=O)c2cccc([N+](=O)[O-])c2)c(C(=O)/C=C/c2cccs2)c1 | 5% | -16 | 0.6 | -9 | -20 | 0.4 | x | 0.8
O=[N+]([O-])/C=C/c1cn(Cc2ccccc2)c2ccccc12 | 10% | -13 | 2.9 | 1 | 37 | -0.1 | x | -1.6

Following part
SMILES | Vif A3G | Calb FLC | RanGTP-Imp inh | Beta apoptosis | T cruzi inh | Bfl-1 A1 inh | AF4-AF9 inh | LANA-H2B inh
COCCn1c(=O)c2ccccc2c2ccccc2c1=O | x | -5 | -2.0 | -2 | -2 | 0.7 | -5.5 | 0.4
COc1ccc(CCNC(=O)c2cc(C(=O)c3cc(C)ccc3O)cn(CCc3ccc(OC)cc3)c2=O)cc1 | 16% | 6 | -18 | 22 | 32 | -0.1 | x | -2.9
CCNc1nc(NC(C)C)nc(Oc2ccc(OCCOc3ccccc3)nn2)n1 | -9% | 17 | 2.1 | 3 | 4 | -0.2 | 4.5 | -4.1
C=CCc1c(C)nc2ccc(C(=O)OCC)cc2c1Cl | 8% | u | 1.6 | x | 13 | 0.4 | -0.4 | 10.0
COc1ccc(NC(=S)NCCNC(C)=O)cc1 | 18% | 5 | 0.4 | -1 | 1 | 0.0 | -2.2 | -1.4
CCCN(CC1CC1)C(=O)COC(=O)c1ccc(CNS(=O)(=O)c2ccc(F)c(Cl)c2)cc1 | 1% | -4 | -0.8 | 2 | -1 | -0.4 | 1.9 | 0.9
CCC1(C)Cc2nc3[nH]c(=S)n(-c4ccccc4)c(=O)c3cc2CO1 (stereo not drawn) | x | -17 | -3.0 | 0 | 6 | -0.1 | -0.6 | 2.0
COC(=O)COc1ccc(C2NC(=O)NC(c3ccccc3)=C2C(C)=O)cc1Br (stereo not drawn) | -2% | 6 | 0.2 | -8 | -12 | 0.8 | 3.9 | 0.9
COc1ccc(C(=O)CN2CCN(S(=O)(=O)c3cccc([N+](=O)[O-])c3)CC2)cc1OC | -7% | -1 | -0.9 | -2 | 6 | 0.1 | -6.5 | 0.1
O=S(=O)(O)c1cc(O)ccc1O | x | x | x | -6 | x | 0.8 | -4.3 | 5.8
Cc1c(S(=O)(=O)N2CCCC(C(=O)O)C2)cnn1C (stereo not drawn) | -5% | 0 | 22* | -4 | -12 | 0.0 | 0.2 | 0.9
O=C(C1=C(O)C(=O)N(CCN2CCOCC2)C1c1ccc(F)cc1)c1cccs1 (stereo not drawn) | x | 1 | u | -8 | -8 | 0.3 | 1.0 | 2.0
CC1CCCCC1NC(=O)CCNS(=O)(=O)c1ccc2c(c1)CCC(=O)N2 (stereo not drawn) | 6% | 4 | 4.7 | 2 | -9 | -0.4 | 0.3 | -4.4
CCOc1ccccc1C(=O)NC1CC2CCCC(C1)N2C1CC1 (stereo not drawn) | u | 9 | 5.3 | -4 | -1 | 0.3 | x | 1.1

Bioassay records: PubChem BioAssay, several laboratories

Outcome played no part in choosing rows; about 4.3% have a hit in one of these screens.
